Screens deposited in PubChem BioAssay by Broad Institute.
A1 apoptosis 2 = compounds inhibiting A1, read as caspase activation | 24,000 tested, under 10 active | caspase activation, % (no concentration beside the values) | AID 2465 | MEF A1-2A-BIM cells, caspase-Glo luminescence, 3 h; percent of clofoctol response, DMSO zero; in the data active = caspase activation above about 5.9%;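 also: wells of about 30 µL received 50 nL stock; the first replicate is given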
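System: mouse embryonic fibroblasts co-expressing A1 and BIM (A1-2A-BIM), primed for A1 dependence; amount: 2500 cells/well; doses: 50 nL pinned compound; schedule: cells settled overnight, compound exposure 3 h at 37 °C, 5% CO2; detection: Caspase-Glo 3/7 luminescence, 1 h at room temperature; read-out: Caspase-3/7 activation, seen as rise in luminescence signal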
An asterisk follows results filed as active. Some of the compounds tested (hit frequency here may not be typical).

SMILES	A1 apoptosis 2
C[C@H](CO)N1C[C@H](C)[C@H](CN(C)Cc2ccncc2)Oc2ccc(NS(=O)(=O)c3ccccc3)cc2CC1=O	-0.8
C[C@@H]1CN([C@H](C)CO)C(=O)Cc2cc(NC(=O)Nc3ccc(F)cc3)ccc2O[C@@H]1CN(C)C(=O)NC1CCCCC1	-1.2
C[C@@H]1CN([C@@H](C)CO)C(=O)c2cc(NC(=O)NC3CCCCC3)ccc2O[C@@H](C)CCCCO[C@H]1CN(C)Cc1ccc(C(=O)O)cc1	0.3
CNC[C@@H]1Oc2ccc(NC(=O)Nc3ccc4c(c3)OCO4)cc2C(=O)N([C@@H](C)CO)C[C@@H]1C	0.0
C[C@@H]1CN([C@@H](C)CO)C(=O)c2cc(NS(=O)(=O)c3ccc(Cl)cc3)ccc2O[C@H]1CN(C)C(=O)Nc1ccc2c(c1)OCO2	-0.5
C[C@@H]1CCCCO[C@H](CN(C)S(=O)(=O)c2cccs2)[C@H](C)CN([C@@H](C)CO)C(=O)c2cc(NC(=O)NC3CCCCC3)ccc2O1	0.1
Cc1noc(C)c1S(=O)(=O)Nc1ccc2c(c1)C(=O)N([C@H](C)CO)C[C@@H](C)[C@@H](CN(C)Cc1ccc(C(=O)O)cc1)OCCCC[C@H](C)O2	1.5
C[C@@H]1CCCCO[C@@H](CN(C)Cc2ccc(Cl)c(Cl)c2)[C@H](C)CN([C@@H](C)CO)C(=O)c2cc(NC(=O)Nc3ccccc3)ccc2O1	-1.4
Cc1ccc(S(=O)(=O)Nc2cccc3c2O[C@H](CN(C)S(=O)(=O)c2cn(C)cn2)[C@@H](C)CN([C@@H](C)CO)C3=O)cc1	-0.3
C[C@@H]1CN([C@@H](C)CO)C(=O)c2cccc(NS(=O)(=O)c3ccc(Cl)cc3)c2O[C@H]1CN(C)C(=O)Nc1ccccc1	-1.2
COc1ccc(NC(=O)Nc2ccc3c(c2)C(=O)N([C@@H](C)CO)C[C@@H](C)[C@H](CN(C)Cc2ccc(Cl)c(Cl)c2)OCCCC[C@H](C)O3)cc1	0.3
Cc1noc(C)c1S(=O)(=O)N(C)C[C@H]1Oc2ccc(N(C)C)cc2CC(=O)N([C@H](C)CO)C[C@@H]1C	0.2
Cc1ccc(S(=O)(=O)N(C)C[C@@H]2Oc3ccc(NS(=O)(=O)c4ccccc4)cc3CC(=O)N([C@@H](C)CO)C[C@@H]2C)cc1	-1.0
CN(CCO)c1ccc(/C=N/NC(=O)CCCCCCC(=O)Nc2ccccc2O)cc1	0.1
C[C@H]1CN([C@@H](C)CO)C(=O)Cc2cc(NS(=O)(=O)c3ccccc3)ccc2O[C@H]1CN(C)S(=O)(=O)c1ccc(F)cc1	0.4
C[C@@H]1CN([C@@H](C)CO)C(=O)Cc2cc(NC(=O)NC3CCCCC3)ccc2O[C@@H]1CN(C)Cc1ccc2c(c1)OCO2	-1.2
C[C@@H]1CN([C@H](C)CO)C(=O)c2cccc(NC(=O)C3CC3)c2O[C@H]1CN(C)Cc1ccc(C(F)(F)F)cc1	-0.4
CC(C)NC(=O)N(C)C[C@H]1Oc2ccc(NC(=O)Cc3cn(C)c4ccccc34)cc2C(=O)N([C@@H](C)CO)C[C@H]1C	-0.1
C[C@@H]1CCCCO[C@H](CN(C)S(=O)(=O)c2ccc(F)cc2)[C@@H](C)CN([C@@H](C)CO)C(=O)c2cc(NC(=O)CCC(F)(F)F)ccc2O1	0.1
C#Cc1ccc([C@H]2C=C(C(=O)N3CCN(Cc4ccc5c(c4)OCO5)CC3)O[C@@H](OCc3ccc(CO)cc3)C2)cc1	-0.4
C[C@@H]1CCCCO[C@H](CN(C)C(=O)Nc2ccccc2)[C@H](C)CN([C@H](C)CO)C(=O)c2cc(NS(=O)(=O)c3cccs3)ccc2O1	0.0
C[C@H](CO)N1C[C@H](C)[C@@H](CN(C)Cc2ccc3c(c2)OCO3)Oc2ccc(NC(=O)Nc3ccccc3)cc2C1=O	-1.9
Cc1noc(C)c1S(=O)(=O)N(C)C[C@H]1OCCCC[C@@H](C)Oc2ccc(N(C)C)cc2C(=O)N([C@@H](C)CO)C[C@@H]1C	0.0
COc1ccc(NC(=O)Nc2ccc3c(c2)C(=O)N([C@@H](C)CO)C[C@H](C)[C@H](CN(C)C)O3)cc1	-0.1
C[C@H]1CCCCO[C@@H](CN(C)C(=O)CCC(F)(F)F)[C@@H](C)CN([C@@H](C)CO)C(=O)c2cc(N(C)C)ccc2O1	0.7
Cc1ccc(S(=O)(=O)N(C)C[C@H]2Oc3ccc(NC(=O)CCC(F)(F)F)cc3CC(=O)N([C@@H](C)CO)C[C@H]2C)cc1	-0.3
C[C@@H]1CCCCO[C@H](CN(C)C(=O)CCCN(C)C)[C@H](C)CN([C@H](C)CO)C(=O)c2cc(NC(=O)C3CCCCC3)ccc2O1	0.0
CNC[C@@H]1OCCCC[C@H](C)Oc2ccc(NS(=O)(=O)c3cccs3)cc2C(=O)N([C@@H](C)CO)C[C@H]1C	-1.1
C[C@H](CO)N1C[C@H](C)[C@H](CN(C)Cc2ccncc2)Oc2ccc(NC(=O)CCC(F)(F)F)cc2CC1=O	-0.3
C[C@H]1CCCCO[C@@H](CN(C)Cc2ccc(C(=O)O)cc2)[C@@H](C)CN([C@@H](C)CO)C(=O)c2cc(N(C)C)ccc2O1	1.0

Retrieved by structure from above:
SMILES	A1 apoptosis 2
Cc1ccc(S(=O)(=O)N(C)C[C@H]2Oc3ccc(NC(=O)CCC(F)(F)F)cc3CC(=O)N([C@@H](C)CO)C[C@H]2C)cc1	-0.3
CNC[C@@H]1OCCCC[C@H](C)Oc2ccc(NS(=O)(=O)c3cccs3)cc2C(=O)N([C@@H](C)CO)C[C@H]1C	-1.1

New compounds follow
SMILES	A1 apoptosis 2
Cc1noc(C)c1S(=O)(=O)N(C)C[C@@H]1OCCCC[C@@H](C)Oc2ccc(NS(=O)(=O)c3ccccc3)cc2C(=O)N([C@@H](C)CO)C[C@@H]1C	0.7
CC(C)NC(=O)N(C)C[C@@H]1OCCCC[C@@H](C)Oc2ccc(NC(=O)c3ccccc3)cc2C(=O)N([C@H](C)CO)C[C@H]1C	-1.4
COc1ccc(S(=O)(=O)N(C)C[C@@H]2Oc3ccc(NC(=O)CCN4CCOCC4)cc3C(=O)N([C@@H](C)CO)C[C@@H]2C)cc1	-2.0
C[C@H](CO)N1C[C@H](C)[C@@H](CN(C)C(=O)Nc2ccc3c(c2)OCO3)Oc2c(NS(=O)(=O)c3ccccc3)cccc2C1=O	-0.9
C[C@@H]1CN([C@H](C)CO)C(=O)CCCn2cc(nn2)CO[C@@H]1CN(C)Cc1ccc(Cl)c(Cl)c1	0.1
COc1ccc([Si](C)(C)[C@H]2[C@H](CCn3cc([C@H](O)c4ccccc4)nn3)O[C@@]3(C(=O)N(Cc4cccc(N5CCC5=O)c4)c4ccccc43)[C@@H]2C)cc1	-0.4
C[C@H](CO)N1C[C@H](C)[C@H](CN(C)C(=O)C2CCCCC2)OCCCC[C@H](C)Oc2ccc(NS(=O)(=O)c3ccccc3)cc2C1=O	0.0
Cc1noc(C)c1NC(=O)Nc1cccc2c1O[C@@H](CN(C)Cc1ccc(Cl)c(Cl)c1)[C@H](C)CN([C@H](C)CO)C2=O	0.0
C[C@H](CO)N1C[C@H](C)[C@@H](CN(C)Cc2ccc(Cl)c(Cl)c2)OCCCC[C@H](C)Oc2ccc(NC(=O)CCC(F)(F)F)cc2C1=O	-0.3
C[C@H]1CN([C@@H](C)CO)C(=O)c2cccc(NC(=O)Nc3ccc4c(c3)OCO4)c2O[C@@H]1CN(C)Cc1ccc(C(=O)Nc2ccccc2N)cc1	-0.8
CC(C)NC(=O)N(C)C[C@@H]1Oc2ccc(NC(=O)Cc3cn(C)c4ccccc34)cc2C(=O)N([C@H](C)CO)C[C@@H]1C	0.2
Cc1noc(C)c1NC(=O)Nc1ccc2c(c1)C(=O)N([C@H](C)CO)C[C@H](C)[C@H](CN(C)C(=O)Nc1ccc3c(c1)OCO3)O2	-0.9
C[C@@H]1CN([C@@H](C)CO)C(=O)c2cc(NS(=O)(=O)c3ccc(F)cc3)ccc2O[C@@H](C)CCCCO[C@H]1CN(C)C(=O)Nc1cccc2ccccc12	-0.9
O=C(O)CCCCCCC(=O)N/N=C/c1cc(Br)ccc1O	-0.5
C[C@@H]1CN([C@@H](C)CO)C(=O)c2cccc(NC(=O)c3ccncc3)c2O[C@@H]1CN(C)Cc1ccc(C(=O)O)cc1	-0.1
C[C@@H]1CN([C@@H](C)CO)C(=O)Cc2cc(NC(=O)CCN3CCOCC3)ccc2O[C@H]1CN(C)C(=O)Nc1ccc2c(c1)OCO2	-0.9
CNC[C@@H]1Oc2ccc(NC(=O)CCN3CCOCC3)cc2CC(=O)N([C@@H](C)CO)C[C@H]1C	0.4
C[C@H](CO)N1C[C@H](C)[C@@H](CN(C)C(=O)Nc2ccc(C(F)(F)F)cc2)Oc2ccc(NC(=O)C3CC3)cc2CC1=O	0.7
C[C@@H]1CCCCO[C@H](CN(C)S(=O)(=O)c2ccccc2)[C@@H](C)CN([C@H](C)CO)C(=O)c2cc(NC(=O)C3CCCCC3)ccc2O1	1.2
CNC[C@@H]1Oc2c(NC(=O)C3CCOCC3)cccc2C(=O)N([C@H](C)CO)C[C@@H]1C	-0.5
C[C@@H]1CCCCO[C@@H](CN(C)Cc2ccc(C(F)(F)F)cc2)[C@H](C)CN([C@@H](C)CO)C(=O)c2cc(N(C)C)ccc2O1	1.5
Cc1noc(C)c1NC(=O)N(C)C[C@@H]1OCCCC[C@H](C)Oc2ccc(NC(=O)c3ccncc3)cc2C(=O)N([C@H](C)CO)C[C@@H]1C	0.3
C[C@H]1CN([C@@H](C)CO)C(=O)c2cccc(NC(=O)C3CCOCC3)c2O[C@@H]1CN(C)C(=O)Nc1ccccc1	0.4
C[C@H]1CN([C@@H](C)CO)C(=O)c2cccc(NC(=O)NC3CCCCC3)c2O[C@H]1CN(C)S(=O)(=O)c1ccc(Cl)cc1	1.0

Some of these compounds in order of heavy-atom count, descending:
SMILES	A1 apoptosis 2
Cc1noc(C)c1NC(=O)N(C)C[C@@H]1OCCCC[C@H](C)Oc2ccc(NC(=O)c3ccncc3)cc2C(=O)N([C@H](C)CO)C[C@@H]1C	0.3
C[C@@H]1CCCCO[C@H](CN(C)S(=O)(=O)c2ccccc2)[C@@H](C)CN([C@H](C)CO)C(=O)c2cc(NC(=O)C3CCCCC3)ccc2O1	1.2
C[C@@H]1CN([C@@H](C)CO)C(=O)Cc2cc(NC(=O)CCN3CCOCC3)ccc2O[C@H]1CN(C)C(=O)Nc1ccc2c(c1)OCO2	-0.9
Cc1noc(C)c1NC(=O)Nc1ccc2c(c1)C(=O)N([C@H](C)CO)C[C@H](C)[C@H](CN(C)C(=O)Nc1ccc3c(c1)OCO3)O2	-0.9
C[C@@H]1CCCCO[C@@H](CN(C)Cc2ccc(C(F)(F)F)cc2)[C@H](C)CN([C@@H](C)CO)C(=O)c2cc(N(C)C)ccc2O1	1.5
CC(C)NC(=O)N(C)C[C@@H]1Oc2ccc(NC(=O)Cc3cn(C)c4ccccc34)cc2C(=O)N([C@H](C)CO)C[C@@H]1C	0.2
C[C@@H]1CN([C@@H](C)CO)C(=O)c2cccc(NC(=O)c3ccncc3)c2O[C@@H]1CN(C)Cc1ccc(C(=O)O)cc1	-0.1
C[C@H]1CN([C@@H](C)CO)C(=O)c2cccc(NC(=O)C3CCOCC3)c2O[C@@H]1CN(C)C(=O)Nc1ccccc1	0.4
CNC[C@@H]1Oc2ccc(NC(=O)CCN3CCOCC3)cc2CC(=O)N([C@@H](C)CO)C[C@H]1C	0.4
CNC[C@@H]1Oc2c(NC(=O)C3CCOCC3)cccc2C(=O)N([C@H](C)CO)C[C@@H]1C	-0.5
O=C(O)CCCCCCC(=O)N/N=C/c1cc(Br)ccc1O	-0.5
